Bioassay records as filed in PubChem BioAssay.
Bead autofluor: flagged as autofluorescent in microsphere protease counterscreen; compound autofluorescence counterscreen, microsphere flow cytometry; hits give high values; fluorescence intensity (test concentration not listed); 360,000 compounds, 3.1% hits; AID 624483;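 active = at least 3 SD above the mean of all compounds, about 16000 in these data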;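 note: 100 nL of 1 mM stock went into each well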
The depositor's hits bear a star. Not all compounds are listed; rates above refer to the full screens.

SMILES	Bead autofluor
CC1(C(=O)NS(=O)(=O)c2ccc(F)cc2F)CCN1C(=O)c1ccco1 (stereo unspecified)	4006
O=c1[nH][nH]c2c1[C@@H](c1ccc(F)cc1)O[C@H](CCc1ccccc1)C2	6122
CCCS(=O)(=O)NC(=O)C1(C)CCN(C(=O)c2ccc(C#N)cc2)C1 (stereo unspecified)	3599
Cc1ccc(S(=O)(=O)NC(=O)C2(C)CCN2C(=O)C2(c3ccc(Cl)cc3)CC2)nc1 (stereo unspecified)	3107
O=C(Nc1ccnn1C1CCN(Cc2ccc(CO)o2)CC1)c1cccc(F)c1	3088
O=C(O)C(O)(c1ccc(Cl)cc1)C1(O)CCCC1 (stereo unspecified)	2981
CCOc1ccc(-c2cc(C(=O)NCCOC)[nH]n2)c(C)c1	3614
CC1CCCC(NC(=O)COC(=O)c2ccccc2C(=O)N(C)C2CCCCC2)C1C (stereo unspecified)	3118
CN(C)c1ccc(Sc2ccc3nc(N)nc(N)c3c2)cc1	3728
CC1(C(=O)NCc2ccccc2)CCC(=O)N1CCCn1ccnc1 (stereo unspecified)	6086
Cc1cccc(C#CC2=CC(=O)CC(C)(C)C2)c1	3145
Cc1n[nH]c(=O)n(N=Cc2c[nH]c3ccccc23)c1=O	3677
COc1ccccc1-c1cnc(C(O)c2ccc(Cl)cc2C)[nH]1 (stereo unspecified)	3585
CCc1nc2ccc(C(=O)NC3CCN(Cc4ccccc4)CC3)cn2c1N(CC)Cc1cccc(Br)c1	4926
NC(COCc1ccccc1)c1csc(Nc2ncccn2)n1 (stereo unspecified)	3857
COc1ccc(COC(=O)CCCN=C2NS(=O)(=O)c3ccccc32)cc1F	3093
COc1ccccc1-c1cnc(C(O)c2ccc(C(C)(C)C)cc2)[nH]1 (stereo unspecified)	3545
CCOC(=O)C1CCCN(C(=O)c2ccc3ccccc3c2)CC1 (stereo unspecified)	2869
CC(=O)OC[C@@H]1CN(Cc2ccccc2)C[C@H](n2cnc3c(NC4CCCC4)ncnc32)O1	4544
C[C@@H]1CN([C@@H](C)CO)C(=O)CCCn2nncc2CO[C@@H]1CN(C)C(=O)Oc1cccc2ccccc12	3507
COc1ccc(S(=O)(=O)N2CCOCC2)cc1NC(=O)CCCOc1ccc(C(C)=O)cc1	4254
Nc1c(C(=O)Nc2ccc(Br)cc2)sc2nc(N3CCOCC3)c3c(c12)CCCC3	3834
OC(c1ccc(F)c(F)c1)c1nc(-c2ccc3c(c2)OCO3)cs1 (stereo unspecified)	3970
CC(=O)Nc1cnc(-c2ccc3c(c2)OCO3)cn1	3888
NC(Cc1ccc(C(F)(F)F)cc1)c1csc(Nc2ccc(S(N)(=O)=O)cc2)n1 (stereo unspecified)	3467
CCCn1c(=S)[nH]c2cc(C(=O)NCc3ccccc3OC)ccc2c1=O	3532
COc1ccc(NC(=S)N2CCC3CC2c2cc(-c4ccc5c(c4)OCO5)ccc23)c(OC)c1 (stereo unspecified)	4272
COc1cc(CCN(C(=O)c2cccc(S(C)(=O)=O)c2)C(CCc2ccccc2)c2nc3ccccc3[nH]2)cc(OC)c1 (stereo unspecified)	5742
COc1ccc(-c2csc(C(C)(NC(C)=O)c3ccccc3)n2)cn1 (stereo unspecified)	3716
CCc1nc2ccc(C(=O)N3CCCC(C(N)=O)C3)cn2c1N(C=O)CC (stereo unspecified)	3813

As a working copy, 7 of the compounds above:
SMILES	Bead autofluor
CC(=O)Nc1cnc(-c2ccc3c(c2)OCO3)cn1	3888
NC(Cc1ccc(C(F)(F)F)cc1)c1csc(Nc2ccc(S(N)(=O)=O)cc2)n1 (stereo unspecified)	3467
CCCn1c(=S)[nH]c2cc(C(=O)NCc3ccccc3OC)ccc2c1=O	3532
COc1ccc(NC(=S)N2CCC3CC2c2cc(-c4ccc5c(c4)OCO5)ccc23)c(OC)c1 (stereo unspecified)	4272
COc1cc(CCN(C(=O)c2cccc(S(C)(=O)=O)c2)C(CCc2ccccc2)c2nc3ccccc3[nH]2)cc(OC)c1 (stereo unspecified)	5742
COc1ccc(-c2csc(C(C)(NC(C)=O)c3ccccc3)n2)cn1 (stereo unspecified)	3716
CCc1nc2ccc(C(=O)N3CCCC(C(N)=O)C3)cn2c1N(C=O)CC (stereo unspecified)	3813

Remaining list, next part.
SMILES	Bead autofluor
COc1ccc([C@H]2N[C@]3(CCCN(Cc4ccccc4)C3=O)[C@H]3C(=O)N(Cc4ccccc4)C(=O)[C@@H]23)cc1	3690
CCOC(=O)[C@]12Cc3ccc(C)cc3[C@H]1N(C1CCCCC1)C(=O)c1ccccc12	4371
Clc1cccc(CNc2ccn3nc(-c4cccc(Cl)c4)cc3n2)c1	3039
CCOC(=O)C1=CCC(c2ccccc2)N(S(=O)(=O)c2ccccc2C)C1 (stereo unspecified)	6155
COCOc1cccc(CN2CCC(C)(Oc3ccc(C(C)=O)cc3)C2)c1 (stereo unspecified)	3249
O=c1cc(CN2CCN(c3ccccc3F)CC2)c2ccccc2o1	5660
CC1=C(C(=O)N(C(C)C)C(C)C)CC(CC(=O)NC2CCCC2)C(=O)N1Cc1ccccc1 (stereo unspecified)	3641
NC(=Nc1c([N+](=O)[O-])cnc2ccccc12)N1CCOCC1	4149
CC(=O)Nc1ccc(NC(=O)CSc2nnc(NC(=O)c3ccccc3F)s2)cc1	2813
O=C(/C=C/[C@H]1O[C@@H](n2cnc3c(NC(=O)c4ccccc4)ncnc32)[C@H](O)[C@@H]1O)NCC1CCCO1 (stereo partly specified)	4187
COc1ccc(NC(=O)N(C)C[C@@H]2OCc3cn(nn3)CCCC(=O)N([C@H](C)CO)C[C@H]2C)cc1	2941
CCC(c1ccccc1)c1noc(CCN(CC)CC)n1 (stereo unspecified)	3417
O=C(C[C@H]1C(=O)N(Cc2cccnc2)C[C@@H]1Cc1ccccc1)Nc1ccccc1	3173
CC1(C(=O)NS(=O)(=O)C2CC2)CCN(C(=O)COCc2ccccc2)C1 (stereo unspecified)	2980
COc1cccc(C(O)c2nc(-c3cnn(C)c3)cs2)c1 (stereo unspecified)	2807

Fetched by compound from the list above:
SMILES	Bead autofluor
O=c1cc(CN2CCN(c3ccccc3F)CC2)c2ccccc2o1	5660
O=C(C[C@H]1C(=O)N(Cc2cccnc2)C[C@@H]1Cc1ccccc1)Nc1ccccc1	3173

The list goes on:
SMILES	Bead autofluor
COCc1c(C(=O)Nc2nnc(C3CC3)s2)oc2ccccc12	3904
COCCNC(=O)C1(C)CCN(C(=O)C2(c3ccc(Cl)cc3)CCCC2)C1 (stereo unspecified)	2874
O=C1Nc2ccccc2N=C(c2ccc3c(c2)OCO3)C1N(C(=O)c1ccc2ccccc2c1)C1CC1 (stereo unspecified)	5586
c1ccc2[nH]c(CCN3CCCCC3)nc2c1	2969
CSc1ccccc1C(=O)N1CCc2ccc(NC(=O)c3ccccn3)cc2C1	4324
COc1ccccc1Cn1c(C)c(C(=O)NCCC#N)sc1=O	4951
COC(=O)c1c(NC(=O)c2ccc(C(=O)c3ccccc3)cc2)sc2c1CC(C)(C)NC2(C)C	3910
CN1CCN([C@@H]2CS(=O)(=O)N[C@H]2COCc2ccccc2)CC1	5849
COc1ccc(-c2cnc3c(NC(C)=O)cc(-c4ccccc4CN(C)C)cn23)cc1OC	2927
N#CCCC1(CCC#N)c2ccccc2C(=O)c2ccccc21	4292
OC(c1ccccc1)c1nc(-c2ccc(Cl)cc2)cs1 (stereo unspecified)	3863
Clc1cccc(Cc2c(C3CCCCC3)nc3ccc(Cl)cn23)c1	5905
O=C(CC1CC1)Nc1ccc2c(c1)[C@H]1C[C@H](CC(=O)N3CCc4ccccc4C3)O[C@@H](CO)[C@H]1O2	2976
COc1ccc(NC(=S)N(CCc2ccncc2)C(C)C)cc1Cl	3955
COc1ccc(Cl)cc1C(=O)NNC(=O)CCNC(=O)c1ccccc1	3799
CC1=C(C(=O)N(C)C)CC(CC(=O)NCCN2CCOCC2)C(=O)N1Cc1ccc(F)cc1 (stereo unspecified)	3775
CC(C)C[C@H]1COc2cc(N3CCC[C@H]3CO)ccc2S(=O)(=O)N1	6062
CCN(CC)C(=O)C1=C(C)N(Cc2ccc(OC)cc2)C(=O)C(CC(=O)NCC2CCCCC2)C1 (stereo unspecified)	3720
O=c1[nH][nH]c2c1[C@H](c1ccc(Cl)cc1)O[C@H](C1CC1)C2	4625
COc1cccc(-c2ccc3c(c2)N(Cc2cccc(F)c2)C(=O)C(C)S3)c1 (stereo unspecified)	3131
C[C@@H]1CN([C@@H](C)CO)C(=O)c2cc(-c3cccnc3)cnc2O[C@H]1CN(C)C(=O)c1cccc(F)c1	3585
COc1ccc(-c2ccc(CN3C(C)C(=O)N(Cc4cn(CCC5OCCO5)nn4)CCS3(=O)=O)cc2)cc1 (stereo unspecified)	3426
Cc1noc(C)c1NC(=O)N(C)C[C@@H]1Oc2cc(Br)ccc2S(=O)(=O)N([C@@H](C)CO)C[C@H]1C	3989
Fc1ccccc1CN1Cc2ccccc2-n2nncc2C1	3338
Cc1cc(C)c(C(O)c2ncc(-c3cccc(F)c3)[nH]2)c(C)c1 (stereo unspecified)	2930
CCOC(=O)/C(C#N)=C/Nc1cc(C(=O)OCC)cc2c(OC)c(OC)ccc12	3614
CC(C)NC(=O)C1(C#N)C=C1c1ccccc1 (stereo unspecified)	5614
Nc1cccc(OCCCCCOc2cccc(N)c2)c1	3642
CSc1nnc2sc3cc(C)ccc3n12	2756
CCOc1cccc(-c2cc(N3CCN(CCO)CC3)n3nccc3n2)c1	2681
CCOC1=C2[C@H](c3ccc(CC)cc3)N(S(=O)(=O)c3ccc(C)cc3)C[C@H]2n2c(=O)n(-c3ccccc3)c(=O)n2C1	5519
CC(C)C(=O)N1CCC1(C)C(=O)NCc1ccc(C(C)(C)C)cc1 (stereo unspecified)	4084
CC(=O)C(=Cc1ccc(Cl)cc1)C(=O)c1ccccc1	6970
C[C@@H]1CN([C@H](C)CO)C(=O)CCCn2cc(nn2)CO[C@H]1CN(C)C(=O)c1ccccc1	4282
CC(C)CC1C(=O)N(Cc2cn(Cc3ccco3)nn2)CCS(=O)(=O)N1Cc1ccc(-c2cccc(N(C)C)c2)cc1 (stereo unspecified)	3481
C[C@@H]1CCCCO[C@H](CN(C)Cc2ccccc2)[C@@H](C)CN([C@H](C)CO)C(=O)c2cc(NC(=O)c3ccccc3)ccc2O1	4116
Cc1cc(F)ccc1C(O)c1ncc(-c2ccc(Oc3ccccc3)cc2)[nH]1 (stereo unspecified)	4042
COc1ccc(-n2nnnc2C(C2CC2)N2CCC(n3c(=O)[nH]c4ccccc43)CC2)cc1 (stereo unspecified)	5210
CCCCC(=O)N(C)c1c(C)nc2ccc(C(=O)N3CCCCC3)cn12	4090
COc1cccc(NC(=O)C2(C)CCN2Cc2ccc(SC)cc2)c1 (stereo unspecified)	3956
COc1cc(C2(C)SCCCS2)cc(OC)c1OC	6003
COc1ccc(C(SCC(NC(=O)OCc2ccccc2)C(=O)O)c2ccc(OC)cc2)cc1 (stereo unspecified)	2814
COc1ccc(C(O)c2nc(-c3ccc(Cl)cc3)cs2)cc1 (stereo unspecified)	3908
COc1cc(OC)cc(C2=Cc3ccc(OC)cc3C(CC(C)=O)N2c2ccc(-c3cncnc3)cc2)c1 (stereo unspecified)	4345
COc1ccccc1S(=O)(=O)N(C)C[C@@H]1OCc2cnnn2CCCC(=O)N([C@@H](C)CO)C[C@H]1C	3912
CS(=O)(=O)c1ccc(Nc2nc(C(N)Cc3ccc(Cl)cc3)cs2)cc1 (stereo unspecified)	3681
O=c1[nH]c2ccccc2n1C1CCN(C(c2ccccc2OC(F)(F)F)c2nnnn2-c2ccc3c(c2)OCCO3)CC1 (stereo unspecified)	5237
CN(C)CC#Cc1cccc(-c2nc(C(=O)O)cc3c2[C@@H](CCO)N(S(=O)C(C)(C)C)C3)c1 (stereo partly specified)	5633
CC(=O)NCCNC(=O)Cn1nnc(-c2ccccc2)c1COc1ccc2ccccc2c1	3802
O=C(N=C1SC2CS(=O)(=O)CC2N1Cc1ccccc1)c1ccccc1 (stereo unspecified)	3939
O=C([C@H]1O[C@@H](n2ccc(=O)[nH]c2=O)[C@H](O)[C@@H]1O)N(CCC1=CCCCC1)CC1CC1	5908
CCc1nc2c(OCc3ccc(Cl)cc3Cl)cccn2c1N(C)C(=O)C1CC1	3905
CN(C)C1CN(Cc2cn(Cc3cccc(Cl)c3)nn2)S(=O)(=O)C1 (stereo unspecified)	5145
COCCn1c2nc(=O)n(-c3ccccc3)c(=O)c-2nc2ccccc21	3807
O=C(CC[C@H]1O[C@@H](n2ccc(=O)[nH]c2=O)[C@H](O)[C@@H]1O)NC1CCN(Cc2ccccc2)C1 (stereo partly specified)	5582
CC(C)NC(=O)c1cc(C2CCCCN2S(=O)(=O)c2ccccc2)on1 (stereo unspecified)	3707
COCCNC(=O)C1(C)CCN(C(=O)COc2ccc(Cl)cc2Cl)C1 (stereo unspecified)	3535
Cc1ccc(F)cc1C(=O)N1CCC1(C)C(=O)O (stereo unspecified)	2913
COC(=O)C1(C)CCc2c(ccc3ccccc23)C1=O (stereo unspecified)	5419
CC1=C(C(=O)N2CCOCC2)CC(CC(=O)NC2CCCCC2)C(=O)N1Cc1ccc(F)cc1 (stereo unspecified)	3793
COc1ccccc1C(O)c1ncc(-c2cccc(C(F)(F)F)c2)[nH]1 (stereo unspecified)	3490
CC(C)NC(=O)C1(C)Cc2c(-c3cccc(C(F)(F)F)c3)ccnc2O1 (stereo unspecified)	3822

Entries from the list above that have a cyano group, in the order listed:
SMILES	Bead autofluor
CCCS(=O)(=O)NC(=O)C1(C)CCN(C(=O)c2ccc(C#N)cc2)C1 (stereo unspecified)	3599
COc1ccccc1Cn1c(C)c(C(=O)NCCC#N)sc1=O	4951
N#CCCC1(CCC#N)c2ccccc2C(=O)c2ccccc21	4292
CCOC(=O)/C(C#N)=C/Nc1cc(C(=O)OCC)cc2c(OC)c(OC)ccc12	3614
CC(C)NC(=O)C1(C#N)C=C1c1ccccc1 (stereo unspecified)	5614
